Screening data: PubChem BioAssay, National Center for Advancing Translational Sciences (NCATS)
miR-21 FLuc: qHTS Assay for Modulators of miRNAs and/orActivators of miR-21 | HeLa miR-21 FLuc reporter, luciferase, 48 h | Potency, µM (titrated, usually from 38.3 µM), without a hit: top-dose reporter change, positive = more light | 340,000 tested, under 10 active; active = well fitted rising curve with a large enough effect; inconclusive = small, poorly fitted or top-dose-only effect; inactive = no such curve, though single readings can be large or run the other way;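 also: % of control where 0% means no effect; miR-21 action dims this reporter so a rising signal means less miR-21 action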
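Compounds were titrated across several concentrations (up to approximately 40 uM) and incubated 48 hours with HeLa miR-21-FLuc reporter cells (miR-21 target sequence downstream of FLuc, endogenous miR-21). Readout was firefly luciferase luminescence after lytic detection reagent.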
Rango release inh: qHTS Assay for Inhibitors of RanGTP induced Rango (Ran-regulated importin-beta cargo) - Importin beta complex dissociation; Snurportin-1 (Homo sapiens) + GTP-binding nuclear protein Ran (Homo sapiens) + Importin …; AID 540253, 2011; 340,000 tested, 0.071% active; Potency, µM (top dose mostly 46.1 µM), inactives show at the top dose activity change, negative = inhibition; Biochemical FRET Rango-importin beta, RanGTP-induced dissociation; active means falling FRET ratio curve, often poorly fitted, with flat reads before Ran was added; inconclusive means other falling curves, or compound fluorescence or quenching; inactive means flat or rising ratio curve;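 also: potency is read from the fitted curve at half-maximal effect; % of control where 0% means no effect; nearly all actives have a fitted effect of over 45% in size; -100% = wells without RanGTP and RCC1; the record marks most hits as doubtful in a second field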
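Compounds preincubate 5 min with complex of recombinant Rango and importin beta in PBS with 1 mM DTT. Ran (0.6 uM) loaded with 2 mM GTP plus 0.2 uM RCC1 starts dissociation; FRET is recorded 45 min later.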
GLA inh pH 4.5: qHTS Assay for Inhibitors of Human alpha-Galactosidase at pH 4.5. Alpha-galactosidase A (Homo sapiens), P06280. 230,000 tested, under 10 active. activity change, negative = inhibition, % at 105 µM. AID 1467, 2008. purified enzyme, 4-MU-alpha-Gal fluorescence, pH 4.5; inconclusive = small, poorly fitted or top-dose-only inhibition, or a rising curve; inactive = flat fitted curve, though single readings scatter; no compound was filed as active;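 also: 0% = full activity with enzyme and -100% = basal without enzyme; dose as in the result columns while the protocol names 77 µM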
Rango-impB inh: qHTS Assay for Inhibitors of Rango (Ran-regulated importin-beta cargo) - Importin beta complex formation. 340,000 tested, 0.031% active. Rango CFP/YFP FRET sensor + importin beta, 45 min. Potency, µM (titrated, usually from 92.2 µM), inactives show top-dose inhibition of complex formation. Importin subunit beta-1 (Homo sapiens), Q14974; active = rising FRET ratio curve, often small or poorly fitted; inconclusive = mostly compound fluorescence or quenching in the first reads; inactive = flat curves in all reads;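 also: potency is read from the fitted curve at half-maximal effect; 0% = DMSO wells and 100% = buffer wells lacking importin beta; nearly all actives have a fitted effect of over 15% in size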
Target sequence (Q14974 whole entry, looked up): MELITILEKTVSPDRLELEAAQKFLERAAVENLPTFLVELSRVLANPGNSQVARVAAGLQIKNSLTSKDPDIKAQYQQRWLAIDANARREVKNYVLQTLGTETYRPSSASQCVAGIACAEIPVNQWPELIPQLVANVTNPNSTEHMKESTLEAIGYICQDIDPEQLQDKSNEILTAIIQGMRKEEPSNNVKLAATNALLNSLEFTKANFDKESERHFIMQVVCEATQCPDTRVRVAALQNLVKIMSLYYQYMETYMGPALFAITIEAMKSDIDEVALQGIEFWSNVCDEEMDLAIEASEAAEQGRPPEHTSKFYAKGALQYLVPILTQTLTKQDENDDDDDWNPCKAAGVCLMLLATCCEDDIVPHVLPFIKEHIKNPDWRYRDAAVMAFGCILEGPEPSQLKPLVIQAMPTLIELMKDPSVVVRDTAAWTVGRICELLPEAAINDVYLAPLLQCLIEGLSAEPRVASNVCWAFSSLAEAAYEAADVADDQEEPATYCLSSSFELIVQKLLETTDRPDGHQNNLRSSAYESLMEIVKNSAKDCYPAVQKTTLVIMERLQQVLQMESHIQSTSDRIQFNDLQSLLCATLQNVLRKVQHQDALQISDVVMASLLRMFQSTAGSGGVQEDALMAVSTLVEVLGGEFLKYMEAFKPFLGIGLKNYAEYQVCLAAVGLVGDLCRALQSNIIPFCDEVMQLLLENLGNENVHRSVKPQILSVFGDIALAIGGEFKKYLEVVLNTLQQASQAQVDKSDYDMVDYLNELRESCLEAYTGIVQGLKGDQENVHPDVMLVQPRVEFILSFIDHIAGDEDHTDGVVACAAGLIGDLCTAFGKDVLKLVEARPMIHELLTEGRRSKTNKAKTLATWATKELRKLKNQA
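Inhibition scored from the CFP 486 nm/YFP 530 nm FRET ratio 45 min after adding 0.125 microM importin beta to 50 nM Rango biosensor preincubated 5 min with compound (room temperature, PBS with DTT, Tween-20, BSA). No-importin wells as positive control.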
The depositor's hits bear a star; ? = inconclusive; / = no result given; & = joins results of further samples.

SMILES | miR-21 FLuc | Rango release inh | GLA inh pH 4.5 | Rango-impB inh
C=CCN1C(=O)C(O)(CC(=O)c2ccc(-n3cccc3)cc2)c2ccccc21 (stereo unspecified) | -8% | 15% | -4 | 8.9%
Cc1cc(N(CCO)CCO)nc(-n2nc(C)cc2C)n1 | -8% | -4% | 7 | 0.5%
CN(C)S(=O)(=O)c1ccc(C(=O)N2CC(=O)Nc3ccc(F)cc3C2c2ccc(F)cc2)cc1 (stereo unspecified) | 3% | 2% | / | ?
Fc1ccccc1Nc1nc2ccccc2n2nnnc12 | -66% | -25% | 2 | ?
Cc1cccc(C)c1NC(=O)Nc1cccs1 | -1% | ? | -2 | ?
O=C1/C(=C\c2cccs2)Sc2ccc3ccccc3c21 | -63% | -13% | -9 | -0.9%
Cc1cc(-c2ccc([N+](=O)[O-])cc2)nc2ccccc12 | -32% | -1% | -5 | -0.1%
Cc1ccccc1C1C2=C(Nc3[nH]n(-c4ccccc4)c(=O)c31)c1ccccc1C2=O (stereo unspecified) | 10% | / | -4 | /
COC(=O)c1cccnc1Oc1ccccc1 | -4% | 10% | -5 | 2.6%
COc1ccc(NC(=O)COc2ccc(C(=O)NCc3cccnc3)cc2OC)cc1 | / | 2% | / | 0.8%
CS(=O)(=O)Nc1nc2ccccc2[nH]1 | 3% | -6% | 1 | -4.3%
CC1CCCCN1C(=O)CSc1nc2ncccc2[nH]1 (stereo unspecified) | -5% | 5% | / | 4.6%
CC(C)Cc1nc(N2CCN(C(=O)c3ccccc3)CC2)c(C#N)c2c1CCC2 | -4% | 5% | 2 | 2.4%
COc1cccc(CC(=O)Nc2ccc(-c3csc(C)n3)cc2)c1 | -41% | -2% | -11 | -1.4%
Cc1ccc(N2CC(C(=O)Nc3nnc(SCC(N)=O)s3)CC2=O)cc1C (stereo unspecified) | 0% | 20% | / | 0.1%
CCc1ccccc1NC(=O)[C@@H]1CCC(=O)N1C1OC(=O)c2ccccc21 (stereo partly specified) | 2% | -4% | / | -0.2%
CCCCNC(=S)N1CCN(CC)CC1 | -1% | 13% | 8 | -0.9%
Cc1cc(NC(=O)COC(=O)c2ccccc2NCCO)no1 | / | 6% | / | ?
O=C(Nc1cccc(Cl)c1N1CCOCC1)c1cccs1 | -2% | 1% | / | 1.5%
COc1cc(/C=C2/OC(=O)c3cc([N+](=O)[O-])ccc32)cc(OC)c1OC | / | -1% | / | 1.6%
O=C(O)CN=C(NS(=O)(=O)c1ccc(Cl)cc1)c1ccc(F)cc1 | 0% | -12% | -7 | -0.7%
CC(=O)C1=C(O)C(=O)N(c2ccc(Br)cc2)C1c1cccc([N+](=O)[O-])c1 (stereo unspecified) | -4% | -7% | / | -2.0%
Cc1cccc(C)c1OCC(O)Cn1ccnc1C (stereo unspecified) | 0% | 1% | -2 | -1.6%
Cc1cc(S(=O)(=O)Nc2ccc(C(=O)NCC(c3ccccc3)N(C)C)cc2)ccc1F (stereo unspecified) | 0% | 1% | / | -0.1%
Cc1csc(NC(=O)C2CSC3(C)CCC(=O)N23)n1 (stereo unspecified) | 0% | -16% | / | -0.9%

A portion from further up:
SMILES | miR-21 FLuc | Rango release inh | GLA inh pH 4.5 | Rango-impB inh
COc1ccc(NC(=O)COc2ccc(C(=O)NCc3cccnc3)cc2OC)cc1 | / | 2% | / | 0.8%
CS(=O)(=O)Nc1nc2ccccc2[nH]1 | 3% | -6% | 1 | -4.3%

Three structures already listed, arranged by SMILES length, lowest first.
SMILES | miR-21 FLuc | Rango release inh | GLA inh pH 4.5 | Rango-impB inh
Fc1ccccc1Nc1nc2ccccc2n2nnnc12 | -66% | -25% | 2 | ?
CC1CCCCN1C(=O)CSc1nc2ncccc2[nH]1 (stereo unspecified) | -5% | 5% | / | 4.6%
O=C(Nc1cccc(Cl)c1N1CCOCC1)c1cccs1 | -2% | 1% | / | 1.5%

Additional compounds
SMILES | miR-21 FLuc | Rango release inh | GLA inh pH 4.5 | Rango-impB inh
Cc1ccc(C(=O)Nc2c(C)cc(-c3ccc(Cl)cc3)oc2=O)cc1 | -1% | 1% | -1 | -3.4%
Cc1onc(-c2ccccc2)c1C(=O)Oc1ccccc1 | -1% | -17% | 2 | -1.3%
COc1ccc(Cl)cc1-n1c(=S)sc2c(=O)n(-c3ccc(F)cc3)c(SCC(=O)O)nc21 | -1% | -4% | / | -0.9%
COc1ccc(-c2nc(CS(=O)CC(=O)NCc3ccccc3)c(C)o2)cc1OC (stereo unspecified) | -9% | -2% | / | -0.7%
COc1ccc(OC)c(CNC(=O)C2CCN(C(=O)N(C)C)CC2)c1 | -4% | 8% | 8 | -2.0%
S=c1nc[nH]c2nc[nH]c12 | 19% | 2%&-16% | -6 | ?
COc1ccccc1/C=C1\SC(=S)N(CCC(=O)NCCCN2CCOCC2)C1=O | 3% | -2% | 5 | -0.9%
CCOc1ccc(CN(C(=O)c2cc3ccccc3oc2=O)C2CC2)cc1 | -5% | -3% | -3 | 1.1%
CCc1cc[n+](-c2nc3ccccc3nc2C(=C=[N-])C#N)cc1 | -6% | 2% | 0 | 0.9%
CC(C)P(=O)(c1cccc(C(=O)O)c1)C(C)C | -7% | 0% | 8 | 2.1%
COC(=O)c1cc2c([nH]c3ccccc32)c(C)n1 | -18% | / | 6 | /
O=C(CSc1nccc(=O)[nH]1)N1CCOCC1 | 1% | -7% | / | -1.1%
Cc1ccc(NC(=S)NC(NC(=O)Cc2cccc3ccccc23)C(Cl)(Cl)Cl)cc1 (stereo unspecified) | ? | 1% | 5 | -1.0%
COCCNC(=O)CSc1ccc(Cl)cc1 | -7% | -9% | / | -3.2%
COCCN(Cc1ccccc1)C(=O)c1cccc(S(=O)(=O)N2CCN(c3ccccc3)CC2)c1 | / | -5% | / | ?
CCN(CC)CCn1c2ccccc2c2n[nH]c(=S)nc21 | -4% | -14% | / | 2.0%
CSc1ccc(S(=O)(=O)N2c3ccccc3CC2C)cc1 (stereo unspecified) | 18% | 20% | / | 1.7%
CCOc1ccc(NC(=O)N2CCC(C(N)=O)(N3CCCCC3)CC2)cc1 | -1%&0% | 1% | -7 | -0.3%
COc1ccc(OC)c(N/C(=N\c2nc(C)cc(C)n2)NC(=O)c2ccco2)c1 | 2% | / | -3 | /
CCN(CC)CCNS(=O)(=O)c1ccc(/C=C/C(=O)O)cc1 | 1% | 18% | 8 | 0.4%
CCCOc1ccc2oc(=O)c3c(c2c1)CCCN3C(=O)CN1CCCC(C(=O)OCC)C1 (stereo unspecified) | 15% | -14% | -24 | 0.7%
Cc1cc(C)n(C(=O)CNC(=O)c2cccc(Br)c2)n1 | -1% | 11% | / | 2.7%
NS(=O)(=O)c1ccc(S(=O)(=O)NCCc2ccccc2)cc1 | -7% | -3% | 6 | 4.6%
COC1=C(Br)C(=O)c2ncccc2C1=O | / | 0% | / | -5.2%
O=C(NNC(=O)c1ccc(Br)o1)c1csc(N2CCOCC2)n1 | / | 4% | / | 2.4%

New compounds follow:
SMILES | miR-21 FLuc | Rango release inh | GLA inh pH 4.5 | Rango-impB inh
COc1ccc(S(=O)(=O)Nc2c(C)ccc3nsnc23)cc1OC | -1% | 37% | -3 | 0.0%
C/C(=N\Nc1ccc(Cl)c(C(=O)O)c1)c1ccc(N2CCOCC2)cc1 | -62% | 12% | / | -0.3%
Nc1nccnc1C(=O)OCc1nc2sc3c(c2c(=O)[nH]1)CCCC3 | / | -13% | / | -1.1%
Cc1cc(C)n2nc(C(=O)Nc3ccc4c(c3)OCO4)nc2n1 | -39% | -25% | -12 | -0.5%
COc1ccc(OCC(=O)NNC(=O)C(=O)Nc2ccc(C)cc2)cc1 | -17% | -12% | 2 | -1.2%
Cc1ccc2occ(C(c3nnnn3C3CCCC3)N3CCN(C(=O)c4ccco4)CC3)c(=O)c2c1 (stereo unspecified) | 15% | -13% | -7 | 2.1%
CC(C)(C)NC(=O)C(c1cccs1)N(C(=O)c1csnn1)c1cccc(F)c1 (stereo unspecified) | -2% | 4% | 11 | ?
CCc1cc(C(=O)N2CCN(S(=O)(=O)c3cc(C)ccc3C)CC2)sc1C | / | -17% | / | -2.1%
COc1ccc(C(=O)NCc2nnc(SCC(=O)Nc3ccccc3F)o2)cc1 | 1% | 4% | 9 | -0.2%
Clc1ncc(CN2CCN(c3ccccc3)CC2)s1 | 4% | -3% | -5 | 3.7%
O=[N+]([O-])c1cc(-c2ccc(/C=N\n3cnnc3)o2)cc([N+](=O)[O-])c1 | 2% | -9% | / | 2.5%
CCCCN(C)C(=O)c1cn(CC)c2ccc(S(=O)(=O)N(C)C)cc2c1=O | 1% | 0% | -11 | 0.0%
COCC(=O)Nc1ccc(S(=O)(=O)N2CCCC2)cc1 | 0% | 9% | / | 4.2%
CCOc1cc(C(=O)NC(=S)Nn2cnnc2)cc(OCC)c1OCC | -1% | 0% | -1 | -3.2%
O=C(/C=C/c1cc(Br)ccc1F)OCC(=O)N1CCOCC1 | / | -16% | / | 3.3%
COc1cc(C(=O)OC(C)CN2C(C)CCCC2C)cc(OC)c1OC (stereo unspecified) | 1% | 1% | / | -2.5%
Cc1ccc(NC(=O)CN(C)C(=O)COc2cccc3cccnc23)cc1 | -8% | 8% | 0 | -0.4%
CC(=O)c1ccc(OCC(=O)N2CCCC(Nc3ccc(C)c(C)c3)C2)cc1 (stereo unspecified) | -5% | 1% | / | -0.3%
CC(C)C(NC(=O)c1ccc(Cl)cc1Cl)C(=O)N1CCC1 (stereo unspecified) | / | -9% | / | -2.2%
Cc1[nH]n(-c2ccccc2)c(=O)c1CCO | -2% | -7% | -1 | 1.3%
Cc1cc(NS(=O)(=O)c2ccc(NC(=O)COc3ccc(C#N)cc3)cc2)nc(C)n1 | / | 5% | / | -3.2%
Cc1cccc(C(=O)OCc2cnc(Cl)s2)c1 | -13% | -6% | -7 | -3.9%
CCOC(=O)C1CCCN(c2nc3ccccc3nc2C(C#N)C(=O)OC(C)COC)C1 (stereo unspecified) | 0% | ? | -6 | ?
COc1ccc(C)cc1S(=O)(=O)Nc1ccncc1 | 2% | -10% | 0 | -0.5%
CCCCCC1=C(C(=O)OC)C(C(=O)OCC)N(S(=O)(=O)C(F)(F)F)c2ccccc21 (stereo unspecified) | / | 11% | -20 | -2.3%

Two of the compounds above, tab-delimited.
structure	miR-21 FLuc	Rango release inh	GLA inh pH 4.5	Rango-impB inh
COc1cc(C(=O)OC(C)CN2C(C)CCCC2C)cc(OC)c1OC (stereo unspecified)	1%	1%	/	-2.5%
Cc1ccc(NC(=O)CN(C)C(=O)COc2cccc3cccnc23)cc1	-8%	8%	0	-0.4%

New compounds follow.
SMILES | miR-21 FLuc | Rango release inh | GLA inh pH 4.5 | Rango-impB inh
O=C(CSc1nc2ncc(Cl)cc2[nH]1)c1ccc2c(c1)OCO2 | 4% | -14% | 8 | -4.3%
CCOc1ccc(/C=C\C(C)=N\O)cc1 | -44% | -5% | 2 | -0.6%
CC(C)Nc1nc(NC(C)C)nc(Nn2cnnc2)n1 | -1% | 4% | 4 | -1.7%
C=C(C)[C@@H]1CC[C@]2(C(=O)O)CC[C@]3(C)C(CCC4[C@@]5(C)CC[C@H](O)C(C)(C)C5CC[C@]43C)C12 (stereo partly specified) | 14% | 0% | / | -0.4%
Cc1nnc(N(C)C(=O)c2cccnc2)s1 | -2% | ? | -10 | -2.3%
O=C(CCN1C(=O)/C(=C/c2ccc(F)cc2)SC1=S)NC1CCS(=O)(=O)C1 (stereo unspecified) | -2% | 5% | / | 0.5%
Cc1ccc(C)c(NC(=O)CN(C)C(=O)Cn2c(=O)oc3ccccc32)c1 | / | -10% | / | ?
Cc1cc(OC(F)F)ccc1NC(=S)NC1CCCC1 | -2% | 23% | / | -2.9%
NS(=O)(=O)c1ccc(CCNC(=O)CN2C(=O)c3ccccc3S2(=O)=O)cc1 | / | -4% | / | -3.8%
CCOCCCNC(=O)c1c[nH]c2cc(OC)ccc2c1=O | 0% | -11% | -6 | -1.4%
COc1ccc(-c2onc(C)c2-c2cnn(-c3ccccc3)c2)c(O)c1C | 16% | -6% | -2 | -0.9%

The list is partial; rates above refer to the full screens.
